Assay outcomes (PubChem)
Mtb growth = Mycobacterium tuberculosis H37Rv growth inhibition, putative kinase inhibitor library, confirmatory dose response (AID 2842); M. tuberculosis H37Rv growth inhibition; higher % means a stronger effect; some inactives read as strong as hits; inhibition, % at 10 µg/mL; hits with a dose series show IC90 in µg/mL; hit rate 5.2% among 24,000;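 active = confirmed in a dose series; about a fifth of its hits are not listed in these tables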;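 also: bacteria incubated one week before Alamar blue readout; 0% = bacteria only wells and 100% = bacteria with high antibiotic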
* hit, by the source's call. An excerpt; the hit share may differ from the screen's.

FC(F)(F)c1cccc(-c2nnn3c2nc(NCc2ccc4c(c2)OCO4)c2ccccc23)c1
  Mtb growth: 2.5%

Cc1c(C)n2c3c(=O)n(CC(=O)c4ccccc4)c(=O)n(C)c3nc2n1-c1ccccc1F
  Mtb growth: -4.2%

O=C(NCc1ccco1)NC1CC(=O)N(c2cccc(F)c2)C1 (stereo not drawn)
  Mtb growth: -5.8%

N/C(=N\NC(=O)c1cccc(F)c1)c1cc2ccccc2oc1=O
  Mtb growth: 10.7%

Cc1nc2ccccc2c(=O)n1-c1cccc(NS(=O)(=O)c2ccc(F)c(C(F)(F)F)c2)c1
  Mtb growth: -0.3%

COC(=O)c1c(NC(=O)c2ccc(C#N)cc2)sc2c1CCC2
  Mtb growth: -17.0%

C=C(C)Cn1c(N2CCN(Cc3c(F)cccc3Cl)CC2)nc2c1c(=O)[nH]c(=O)n2C
  Mtb growth: 18.2%

Cc1ccccc1N1C(=O)N(c2cccc(C)c2C)C2CS(=O)(=O)CC21 (stereo not drawn)
  Mtb growth: -5.9%

CCc1nc(SCC(=O)c2ccc(OC)cc2)c2c(=O)n(C)c(=O)n(C)c2n1
  Mtb growth: -5.4%

COC(=O)c1ccc(C(=O)Nc2nnc(-c3cc(Cl)ccc3Cl)o2)cc1
  Mtb growth: 1.3%

Cc1ccnc(SCCn2c(N3CCCC(C)C3)nc3c2c(=O)n(C)c(=O)n3C)n1 (stereo not drawn)
  Mtb growth: 2.6%

Cc1ccc(C)c(N2CCN(c3ncnc(N)c3[N+](=O)[O-])CC2)c1
  Mtb growth: 5.0%

CCCCOc1ccc(C(=O)Nc2nnc(-c3ccc(C)cc3C)o2)cc1
  Mtb growth: 39.7%

O=C(CCOc1ccccc1)Nc1nnc(-c2ccco2)o1
  Mtb growth: 16.5%

Cc1cc(NC(=O)c2cccc(Br)c2)nc2c1c(=O)oc1ccccc12
  Mtb growth: -10.6%

CCCCCn1c(SCc2cccc(C)c2)nc2c1c(=O)[nH]c(=O)n2C
  Mtb growth: 10.7%

Cc1cc2cc(CCNC(=O)c3ccc(Br)cc3)c(=O)[nH]c2cc1C
  Mtb growth: -7.3%

Cc1cc(C)cc(NC(=O)CSc2nccn(-c3ccc(F)cc3)c2=O)c1
  Mtb growth: 6.3%

CCOC(=O)Nc1c(C(=O)Nc2ccc(OC)c(OC)c2)oc2ccccc12
  Mtb growth: -2.6%

COc1ccc(/C=C/C(=O)c2c(O)c3ccccc3[nH]c2=O)cc1
  Mtb growth: -7.7%

COc1cccc(CNc2nc3c(-c4cccc(Br)c4)nnn3c3ccccc23)c1
  Mtb growth: -6.3%

O=C(/C=C/c1ccccc1)Nc1ccccc1-c1nc2ccccc2[nH]1
  Mtb growth: 3.3%

N#Cc1c(NC(=O)c2cc3c(ccc4ccccc43)oc2=O)sc2c1CCN(Cc1ccccc1)C2
  Mtb growth: -0.7%

O=C(Nc1nc(-c2ccc(Br)cc2)cs1)c1ccc(S(=O)(=O)N2CCCCC2)cc1
  Mtb growth: 0.5%

CCOc1ccc2ccccc2c1C(=O)Nc1c2c(nn1-c1ccccc1C)CS(=O)C2 (stereo not drawn)
  Mtb growth: 5.3%

COc1ccc(/C=C/C(=O)Nc2ccc(S(=O)(=O)N3CCCCCC3)cc2)cc1
  Mtb growth: 57.7%

CCOC(=O)c1nn(-c2ccccc2)c(=O)c2c(NC(=O)c3cc(Cl)ccc3OC)scc12
  Mtb growth: -5.9%

O=C(Cn1cnc2c(cnn2-c2ccc(F)cc2)c1=O)NCc1ccc2c(c1)OCO2
  Mtb growth: 2.6%

CCOC(=O)c1nn(-c2ccc(OC)cc2)c(=O)c2c(NC(=O)c3ccccc3OCC)scc12
  Mtb growth: 4.3%

Cc1cc(NC(=O)CSc2ccc3nnc(-c4cccc(F)c4)n3n2)no1
  Mtb growth: 1.1%

Fetched by structure from above, seven records:
CCOc1ccc2ccccc2c1C(=O)Nc1c2c(nn1-c1ccccc1C)CS(=O)C2 (stereo not drawn)
  Mtb growth: 5.3%

O=C(/C=C/c1ccccc1)Nc1ccccc1-c1nc2ccccc2[nH]1
  Mtb growth: 3.3%

O=C(Nc1nc(-c2ccc(Br)cc2)cs1)c1ccc(S(=O)(=O)N2CCCCC2)cc1
  Mtb growth: 0.5%

COc1cccc(CNc2nc3c(-c4cccc(Br)c4)nnn3c3ccccc23)c1
  Mtb growth: -6.3%

N#Cc1c(NC(=O)c2cc3c(ccc4ccccc43)oc2=O)sc2c1CCN(Cc1ccccc1)C2
  Mtb growth: -0.7%

COc1ccc(/C=C/C(=O)Nc2ccc(S(=O)(=O)N3CCCCCC3)cc2)cc1
  Mtb growth: 57.7%

O=C(Cn1cnc2c(cnn2-c2ccc(F)cc2)c1=O)NCc1ccc2c(c1)OCO2
  Mtb growth: 2.6%

Later entries:
NC(=O)CSc1nc2c([nH]c3ccccc32)c(=O)n1-c1cccc(Cl)c1
  Mtb growth: -0.1%

Clc1ccc(CCNc2nc3c(-c4cccc(Br)c4)nnn3c3ccccc23)cc1
  Mtb growth: -0.7%

CC(C)(C)C1CCc2c(sc3ncn(CC(N)=O)c(=O)c23)C1 (stereo not drawn)
  Mtb growth: 10.3%

O=C(O)Cc1c(-c2ccccc2)c2cc(Br)ccc2[nH]c1=O
  Mtb growth: -3.6%

O=C(CSc1nnc(-c2ccc(Cl)s2)o1)Nc1nccs1
  Mtb growth: 81.7%

Cc1ccccc1OCC(O)Cn1c(=S)[nH]c2c1c(=O)[nH]c(=O)n2C (stereo not drawn)
  Mtb growth: 4.8%

COC(=O)c1ccccc1OC1OC(COC(C)=O)C(OC(C)=O)C(OC(C)=O)C1OC(C)=O (stereo not drawn)
  Mtb growth: 1.6%

Cc1ccc(Nc2c(Cc3ccccc3)c(C)c(C#N)c3nc4ccccc4n23)cc1
  Mtb growth: 11.9%

Cc1ccc(C(=O)OCc2ccc3c(c2)OCO3)cc1S(=O)(=O)N1CCCCC1
  Mtb growth: 2.4%

CSc1cccc2sc(Nc3ccc(C)cc3)nc12
  Mtb growth: 13.6%

In another format: entries from further up.
Molecule,Mtb growth
NC(=O)CSc1nc2c([nH]c3ccccc32)c(=O)n1-c1cccc(Cl)c1,-0.1%
Clc1ccc(CCNc2nc3c(-c4cccc(Br)c4)nnn3c3ccccc23)cc1,-0.7%
CC(C)(C)C1CCc2c(sc3ncn(CC(N)=O)c(=O)c23)C1 (stereo not drawn),10.3%
O=C(O)Cc1c(-c2ccccc2)c2cc(Br)ccc2[nH]c1=O,-3.6%
O=C(CSc1nnc(-c2ccc(Cl)s2)o1)Nc1nccs1,81.7%

(cont.)
C[n+]1noc([O-])c1-c1ccccc1
  Mtb growth: -1.0%

O=S(=O)(NCCCn1ccnc1)c1cc(Cl)ccc1Cl
  Mtb growth: -14.9%

Cn1c(=O)[nH]c(=O)c2c1nc(N1CCN(Cc3ccccc3Cl)CC1)n2Cc1ccccc1
  Mtb growth: 81.1%

CCOCC(=O)Nc1c(C(=O)Nc2ccc(F)c(F)c2)oc2ccccc12
  Mtb growth: -6.2%

O=C1CCCN2N=C(SCC(=O)Nc3ccc(F)cc3)SC2=N1
  Mtb growth: 1.9%

Cc1cc(NC(=O)CSc2cn(Cc3ccccc3)c3ccccc23)no1
  Mtb growth: -3.6%

O=C(CCl)Nc1c(C(=O)Nc2ccc(F)c(F)c2)oc2ccccc12
  Mtb growth: 82.1%

CCOc1ccc(N2CC(NC(=O)Nc3cc(C)ccn3)CC2=O)cc1 (stereo not drawn)
  Mtb growth: 13.2%

C=CCOc1ccccc1/C=C(\C#N)c1nc2ccccc2c(=O)[nH]1
  Mtb growth: -6.0%

CSc1ccc2nc(Nc3cc(C)cc(C)c3)sc2c1
  Mtb growth: 1.4%

Cc1cc(C)c(NC(=O)c2sc3nc4c(cc3c2N)C(=O)CC(C)(C)C4)c(C)c1
  Mtb growth: 41.3%

O=C(/C=C/c1cccs1)NC(=S)Nc1ccc(S(=O)(=O)Nc2nccs2)cc1
  Mtb growth: 8.1%

O=C(Nc1c(C(=O)Nc2ccc(OC(F)(F)F)cc2)oc2ccccc12)c1ccccc1I
  Mtb growth: 5.4%

CCOc1cc(C(=O)Nc2nnc(-c3ccccc3C)s2)cc(OCC)c1OCC
  Mtb growth: 43.4%

O=C(Nc1nnc(-c2cccs2)o1)C(c1ccccc1)c1ccccc1
  Mtb growth: 9.3%

Cc1ncc(CO)c2cc(C(N)=O)c(=Nc3ccc([N+](=O)[O-])cc3)oc12
  Mtb growth: -0.6%

COc1ccc(Cl)cc1NC(=O)CSc1nc(-c2cccs2)nc2c1c(=O)n(C)c(=O)n2C
  Mtb growth: -1.6%

Cc1cc2cc(CCNC(=O)Cc3ccccc3)c(=O)[nH]c2cc1C
  Mtb growth: 15.3%

O=C(Cn1c(=O)c2cc(Cl)ccc2n2nncc12)Nc1ccccc1
  Mtb growth: -13.3%

CCOC(=O)c1nn(-c2ccc(C)cc2)c(=O)c2c(NC(=O)c3ccco3)scc12
  Mtb growth: 5.7%

Nc1nc(SCC(=O)N2CCc3ccccc32)[nH]c(=O)c1NC(=O)c1ccco1
  Mtb growth: -4.8%

Cn1c(=O)[nH]c(=O)c2c1nc(N1CCN(c3ccccc3F)CC1)n2CCCSc1ncccn1
  Mtb growth: -7.3%

O=C(Nc1ccc2c(c1)OCCO2)c1oc2ccccc2c1NC(=O)c1c(F)cccc1Cl
  Mtb growth: 1.9%

O=C(Nc1nc(-c2ccc3c(c2)OCCO3)cs1)c1cc(Cl)cc(Cl)c1
  Mtb growth: 25.2%

O=C1/C(=C/c2cccc3ccccc23)Oc2cc(O)ccc21
  Mtb growth: 60.5%

CCCCn1c(O)c(C=Nc2ccccc2C(=O)O)c(C)c(C#N)c1=O
  Mtb growth: 12.2%

CCc1ccc(N2C(=O)C3N=NN(CC(=O)Nc4ccccc4C)C3C2=O)cc1 (stereo not drawn)
  Mtb growth: -3.0%

O=C(CSc1ccc(-c2ccc(F)cc2)nn1)NCc1ccc(Cl)cc1
  Mtb growth: -1.5%

CS(=O)(=O)c1ccc2nc(NC(=O)c3ccc([N+](=O)[O-])o3)sc2c1
  Mtb growth: -0.5%

Cn1c(Cn2c(=O)sc3ccccc32)nnc1SCc1cccc(C(F)(F)F)c1
  Mtb growth: -1.6%

COc1cccc(C(=O)NCCc2cc3ccc(C)c(C)c3[nH]c2=O)c1OC
  Mtb growth: 20.5%

CC1C(=O)N2CCCc3cc(NC(=O)C(=O)NCCc4ccc(F)cc4)cc1c32 (stereo not drawn)
  Mtb growth: 4.8%

O=[N+]([O-])c1ccc(-c2ccc(-c3csc(Nc4ccccn4)n3)o2)cc1
  Mtb growth: -6.2%

COc1ccc(-c2csc(/C(C#N)=C/Nc3ccc4c(c3)OCO4)n2)cc1
  Mtb growth: 9.9%

Cc1cc(NC(=O)C(C)C)nc2c1c(=O)oc1ccccc12
  Mtb growth: -2.3%

Cn1c(=O)[nH]c(=O)c2[nH]c(N3CCN(CCO)CC3)nc21
  Mtb growth: 0.9%

COc1ccccc1NC(=O)CSc1ccc2nnc(-c3cccnc3)n2n1
  Mtb growth: -9.6%

Cc1ccc2cc(CCNC(=O)c3ccc(Cl)cc3Cl)c(=O)[nH]c2c1
  Mtb growth: 7.3%

Cc1nc2c(ccc3nc(NC(=O)c4ccc(-c5ccccc5)cc4)sc32)s1
  Mtb growth: -1.3%

Cc1nc2sc(C(c3ccc(Cl)cc3)N3CCN(CCO)CC3)c(O)n2n1 (stereo not drawn)
  Mtb growth: -0.3%

CSc1ccc2nc(Nc3cccc(Cl)c3)sc2c1
  Mtb growth: 25.0%

O=C(CN1C(=O)CCC1=O)Nc1nc(-c2ccc(Cl)cc2)cs1
  Mtb growth: -1.9%

CC1(C)N=C(SCC(=O)Nc2ccc3c(c2)OCCO3)C(c2ccccc2)=N1
  Mtb growth: -6.1%

COc1cccc2c(=O)n(CC(=O)Nc3cccc(C(F)(F)F)c3)ccc12
  Mtb growth: 4.2%

COc1ccc(-c2nc(SCC(=O)Nc3cccc(C)c3)c3c(=O)n(C)c(=O)n(C)c3n2)cc1
  Mtb growth: 6.2%

CCOC(=O)N1CCN(c2ncnc3c2cnn3-c2ccc(C)c(C)c2)CC1
  Mtb growth: 9.11µg/mL*

CCC(C)NS(=O)(=O)c1cc2c3c(c1)CCN3C(=O)CC2 (stereo not drawn)
  Mtb growth: -1.2%

CCOC(=O)c1sc(N)nc1-c1ccccc1
  Mtb growth: -7.6%

O=C1c2cccc3cccc(c23)C(=O)N1Cc1nnc(Nc2ccccc2)s1
  Mtb growth: -6.9%

COc1ccc(NC(=O)c2oc3ccccc3c2NC(=O)c2c(F)cccc2Cl)cc1
  Mtb growth: -0.1%

Cc1nc(CCn2cnc3ccccc32)no1
  Mtb growth: -6.8%

O=C(CSc1nc2ccccc2[nH]1)Nc1ccc(Br)cc1
  Mtb growth: -3.3%

CCN(C(=O)/C=C/c1ccc(OC)cc1)C1CCS(=O)(=O)C1 (stereo not drawn)
  Mtb growth: -8.9%

O=S1(=O)CC(O)C(NCCc2ccccc2)C1 (stereo not drawn)
  Mtb growth: -6.2%

Cc1ccc2nc(NC(=O)CSc3nc(-c4cccs4)nc4c3c(=O)n(C)c(=O)n4C)sc2c1
  Mtb growth: 2.0%

O=C(CN1C(=O)c2ccccc2C1=O)Nc1nnc(-c2ccco2)o1
  Mtb growth: -1.6%

COc1ccc(-n2c(=O)[nH]c3c(C(N)=O)nc(-c4ccc(Cl)c(Cl)c4)nc32)cc1
  Mtb growth: 4.3%

Cc1csc2nc(O)c(C(=O)NCC(C)O)c(=O)n12 (stereo not drawn)
  Mtb growth: -2.2%

COc1ccc(-c2nnc(NC(=O)C(C)Sc3ccc(C)cc3)s2)cc1 (stereo not drawn)
  Mtb growth: 6.8%

CCN(CC)S(=O)(=O)c1ccc(C(=O)Nc2nc(-c3ccc4ccccc4c3)cs2)cc1
  Mtb growth: 5.0%

N#Cc1c(NC(=O)c2cc(=O)c3ccccc3o2)sc2c1CCCCC2
  Mtb growth: 63.5%

Cc1ccc(-c2csc(NC(=O)c3ccc(S(=O)(=O)N4CCC(C)CC4)cc3)n2)c(C)c1
  Mtb growth: 64.2%
